VACV Venus inh: inhibitors of vaccinia virus (Venus reporter); Vaccinia virus Venus reporter expression, fluorescence; Potency, µM (series often up to 36.5 µM), for inactives: at the top dose activity change, negative = inhibition, most hits filed as inhibitors; 330,000 tested, 0.46% active; active means well fitted inhibition curve with a large enough effect; inconclusive means small, poorly fitted or top-dose-only effect; inactive means no such curve, though single readings can be large or run the other way; tested in A549 cells; also: nearly all actives have a fitted effect of over 30% in size; inactives centre near -10
VACV mCherry inh: inhibitors of vaccinia virus infection (mCherry reporter signal); Vaccinia virus mCherry reporter infection, fluorescence; about a quarter of the inactives have no number; Potency, µM (highest dose often 36.5 µM), for the others: top-dose activity change, negative = inhibition, hits mostly inhibitors; 310,000 tested, 0.63% active; active = well fitted inhibition curve with a large enough effect; inconclusive = small, poorly fitted or top-dose-only effect; inactive = no such curve, though single readings can be large or run the other way; tested in A549 cells; also: nearly all actives have a fitted effect of over 35% in size; inactives centre near -10
* = called active by the depositor; i = inactive; ? = inconclusive; . = not tested or not shown; & = joins results of further samples. % is scaled to controls: 0 for no effect and ±100 for the full control effect; potency is read from the fitted curve at half-maximal effect.

SMILES	VACV Venus inh	VACV mCherry inh
Cc1ccc(NC(=O)c2nc[nH]c2C(=O)N[C@@H](C)C(=O)OC(C)(C)C)cc1	?	-23%
C(=N\N=C\c1cccnc1)/c1cccnc1	-13%	-6%
CN(CC(=O)Nc1ccc(N2CCOCC2)cc1)C(=O)C12CC3CC(CC(C3)C1)C2	?	-2%
Cc1ccc(S(=O)(=O)/N=C(\Nc2cc(C)on2)c2ccc(Cl)cc2)cc1	-21%	?
Cc1nc2cc(S(=O)(=O)N(C)C)ccc2n1-c1ccccc1	-14%	-13%
CCC1CCCCN1C(=O)CN1C(=O)CSC1=O (stereo not drawn)	-7%	-8%
CN(C)N=Nc1ccc(/C=C2\C=Cc3ccccc32)cc1	-15%	-16%
C1CN(P2(N3CC3)=NP(N3CC3)(N3CC3)=NP(N3CC3)(N3CC3)=N2)CCO1 (stereo not drawn)	-18%	-1%
CC(C)(C)[C@@H]1COC(=O)[C@@H](NC(=O)OCC2c3ccccc3-c3ccccc32)C/C=C\C[C@@H](CC(=O)NCCO)C(=O)N1	-4%	i
O=[N+]([O-])c1ccccc1/C=N/Nc1nnc(-c2ccccc2)c(-c2ccccc2)n1	-6%	i
O=C(Nc1ccnn1C1CCN(C(=O)c2c(F)cccc2F)CC1)C1CC1	-5%	i
Cc1ccccc1N/C(SCc1cccc(Br)c1)=C(/C#N)C(N)=O	-8%	i
COc1ccccc1-c1nnc(SC(C)C(=O)Nc2ccc(C(N)=O)cc2)o1 (stereo not drawn)	-8%	-9%
COc1ccccc1C(=O)OCC(=O)NC12CC3CC(CC(C3)C1)C2	-5%	0%
CCCNC(=O)Cn1cnc2sc(C(=O)N3CCN(c4ccc(F)cc4)CC3)c(C)c2c1=O	-11%	i
O=C1C2C(C(=O)N1/N=C/c1cc([N+](=O)[O-])c(O)cc1O)C1C=CC2C12CC2 (stereo not drawn)	-13%	-13%
Cc1cccc(N2CCN(Cc3nnc(-c4cccc(Br)c4)o3)CC2)c1C	-17%	-13%
O=C(NC1CCN(C(=O)Nc2ccc(F)cc2)CC1)c1ccc(F)cc1	6%	-7%
O=C(NNC(=S)NC1CCCCC1)c1ccc(Cl)s1	-14%	-14%
Cc1c(C(=O)NCc2cccs2)sc(=O)n1Cc1ccc(S(C)(=O)=O)cc1	0%	i

Whole records from above. Order of values: VACV Venus inh | VACV mCherry inh
O=C1C2C(C(=O)N1/N=C/c1cc([N+](=O)[O-])c(O)cc1O)C1C=CC2C12CC2 (stereo not drawn) is listed as -13% | -13%
Cc1ccc(NC(=O)c2nc[nH]c2C(=O)N[C@@H](C)C(=O)OC(C)(C)C)cc1 is listed as ? | -23%

Next section
SMILES	VACV Venus inh	VACV mCherry inh
[N-]=[N+]=CC(=O)C(c1ccccc1)(c1ccccc1)c1ccccc1	-1%	-5%
CS(=O)(=O)CCC(C(=O)OCC(=O)c1ccc(Cl)cc1)N1C(=O)c2ccccc2C1=O (stereo not drawn)	27%	2%
O=C(OCCCN=C1NS(=O)(=O)c2ccccc21)c1ccc([N+](=O)[O-])cc1	-10%	-7%
Cc1ccc(C)c(N2CCN(C(=O)c3cc4c(=O)oc5ccccc5c4s3)CC2)c1	-22%	-25%
Cc1n[nH]c(=S)n(NC(=O)CC(=O)Nn2c(=S)[nH]nc(C)c2=O)c1=O	-10%	2%
Cc1cccc(OP(N)(N)=O)c1C	2%	7%
COc1ccc2nc(SCC(=O)N(C)C3CCCCC3)[nH]c2c1	-18%	-12%
CCCN(CCC)CCc1ccc(O)c(O)c1	-4%	-15%
Cc1ccc(-n2c(O)c(C=Nc3cc(C)on3)c3ccccc3c2=O)c(C)c1	-20%	?
COc1cc2ccccc2cc1C(=O)NC1CCCC1	?	?
CCCOc1ccc(/C=c2\sc3nc(-c4ccco4)nn3c2=O)cc1OCC	-10%	.
O=C(NC1CCCC1)c1cc(-c2ccccc2O)on1	-13%	-19%
COc1cccc(/C=N/NC(=O)NC23CC4CC(CC(C4)C2)C3)c1O	-29%	?
CCCC(=O)n1nc(-c2ccc(OC)cc2)nc1N	-7%	-16%
CCn1c(SCC(N)=O)nnc1-c1cc2c(C)nn(-c3ccccc3)c2s1	-27%	-28%
CCCCn1c(=O)c2oc3ccccc3c2n(Cc2ccccc2C)c1=O	-24%	-27%
Cc1ccccc1OCC(=O)Nc1ccc(C(=O)Nc2ccccc2C(=O)O)cc1	6%	i
Cc1ccn(-c2cccc(-n3ccc(C)n3)n2)n1	0%	i
N#C/C(=C\c1ccc(O)cc1)C(=O)NCc1ccccc1	-13%	-4%
CC1=C(C(=O)N(C)C)CC(CC(=O)NCc2cccc3ccccc23)C(=O)N1Cc1ccc(C(C)(C)C)cc1 (stereo not drawn)	-21%	2%

Given as labelled records: 4 of the compounds above
Molecule: O=C(NC1CCCC1)c1cc(-c2ccccc2O)on1
- VACV Venus inh: -13%
- VACV mCherry inh: -19%
Molecule: COc1cccc(/C=N/NC(=O)NC23CC4CC(CC(C4)C2)C3)c1O
- VACV Venus inh: -29%
- VACV mCherry inh: ?
Molecule: CCCC(=O)n1nc(-c2ccc(OC)cc2)nc1N
- VACV Venus inh: -7%
- VACV mCherry inh: -16%
Molecule: CCn1c(SCC(N)=O)nnc1-c1cc2c(C)nn(-c3ccccc3)c2s1
- VACV Venus inh: -27%
- VACV mCherry inh: -28%

More compounds
SMILES	VACV Venus inh	VACV mCherry inh
Cc1nc2ccc(Br)cc2c(=O)n1-c1ccc([N+](=O)[O-])c(C(F)(F)F)c1	-7%	i
O=C(CSc1nnc2n1CCCCC2)Nc1ccc(N2CCOCC2)cc1	-18%	-6%
NS(=O)(=O)c1cccc(NC(=O)COC(=O)c2cc([N+](=O)[O-])ccc2N2CCCC2)c1	-19%	-8%
O=C(c1ccc2c(c1)CCCC2)N1CCN(c2nc3ccc(F)cc3s2)CC1	-17%	-23%
CCOC(=O)C1=C(C)NC(C)=C(C(=O)OCC)C1C(=O)OCC(=O)NC1CCCCC1	-23%	-14%
CCCOc1ccc(C2=CSC3=NCCN23)cc1	-3%	?
Cc1ccc(NC(=O)c2ccc3c(c2)NC(=O)c2ccccc2S3)c(Cl)c1	-24%	-25%
COc1ccc(Cn2ccnc2SCC(=O)Nc2nc3ccccc3s2)cc1	-18%	-5%
O=C1SCCc2c1n(Cc1ccccc1)c1ccccc21	-16%	.
Cc1nnsc1C(=O)N/N=C/c1ccccc1Cl	1%	-10%
Cc1cc(C)c(NC(=O)CSc2nc(=O)n3cc(C)ccc3n2)c(C)c1	-8%	i
Cc1nc(-c2ccc(S(=O)(=O)NCc3ccc(N(C)C)cc3)cc2)co1	-5%	-9%
O=C(CSc1nnc(-c2cccnc2)o1)Nc1ccc(Br)cc1	-21%	-28%
COc1ccc(NC(=O)CN2C(=O)c3ccccc3Sc3ccc(C(=O)N4CCOCC4)cc32)c(OC)c1	-11%&-5%	-7%
CC/C(=C\c1ccccc1)c1cccc2oc3ccccc3c12	-10%	-14%
COc1ccc(C(=O)NC2CC2)cc1OC1CCN(Cc2ccc(Cl)cc2)CC1	-24%	-22%
CC(Sc1ncnc2sccc12)C(=O)Nc1ccc(S(N)(=O)=O)cc1 (stereo not drawn)	?	11µM*
CCCC(=O)OCC(=O)Nc1cc(Cl)ccc1[N+](=O)[O-]	-2%	-1%
O=C(Nc1ccc(Br)cc1)c1ccc(Cl)c(S(=O)(=O)N2CCCCCC2)c1	-23%	?
CC(C)n1cc(CNC(=O)C2CCC(=O)N(Cc3ccccc3F)C2)cn1 (stereo not drawn)	-2%	i

Single entries from the results shown.
Cc1nc2ccc(Br)cc2c(=O)n1-c1ccc([N+](=O)[O-])c(C(F)(F)F)c1 @ VACV Venus inh: -7%
COc1ccc(Cn2ccnc2SCC(=O)Nc2nc3ccccc3s2)cc1 @ VACV Venus inh: -18%
CC(Sc1ncnc2sccc12)C(=O)Nc1ccc(S(N)(=O)=O)cc1 (stereo not drawn) @ VACV mCherry inh: 11µM*
O=C(CSc1nnc(-c2cccnc2)o1)Nc1ccc(Br)cc1 @ VACV Venus inh: -21%
O=C(CSc1nnc2n1CCCCC2)Nc1ccc(N2CCOCC2)cc1 @ VACV mCherry inh: -6%
CCCOc1ccc(C2=CSC3=NCCN23)cc1 @ VACV Venus inh: -3%
CCCC(=O)OCC(=O)Nc1cc(Cl)ccc1[N+](=O)[O-] @ VACV mCherry inh: -1%

The list goes on:
SMILES	VACV Venus inh	VACV mCherry inh
NC(=O)C1CCN(c2ncc(C(F)(F)F)cc2Cl)CC1	-7%	i
CC(=O)C[n+]1cccc2cc(Cl)ccc21	10%	-13%
COc1ccc(CN(CC(=O)NCc2ccccc2)C(=O)CCC(=O)Nc2cc(C)ccn2)cc1	-8%	i
Cc1nc2ccccc2n1C(=O)N1CCOCC1	-2%	-10%
COc1ccc(CCNc2nc(SCc3ccc(F)cc3)nc3ccccc23)cc1OC	-24%	-22%
COc1cc(NC(=O)CN2CCN(C(=O)C3CCCO3)CC2)c(OC)cc1Cl (stereo not drawn)	-22%	i
c1cc2c(cc1Oc1nc(N3CCOCC3)nc(N3CCOCC3)n1)OCO2	-1%	.
Cc1ccc(CNC(=O)COC(=O)c2ccc(Cl)c(N)c2)cc1	4%	-11%
COc1ccc(NC(=O)Cn2c(=O)n(CC3CCCO3)c(=O)c3ccccc32)cc1 (stereo not drawn)	-7%	-16%
COc1cccc(C2CC(C(F)(F)F)n3nc(C(=O)Nc4c(C)n(C)n(-c5ccccc5)c4=O)cc3N2)c1 (stereo not drawn)	-13%	-24%
CO[C@H]1[C@H](NC(=O)c2cccs2)c2ccccc2C12CCN(Cc1cccn1-c1ccccn1)CC2	-4%	-15%
C[C@]1(C(=O)O)C=C[C@@H](Cc2ccccc2)N1C(=O)c1ccccc1	-11%	i
Cc1onc(-c2ccccc2)c1C(=O)Nc1c(C)n(C)n(-c2ccccc2)c1=O	-4%	.
CC(=NC1CCCCC1)C1=C(O)c2ccccc2C1=O	-11%	-28%
COc1ccc(S(=O)(=O)NC(C)C(=O)NCc2cccnc2)cc1C (stereo not drawn)	-12%	-18%
CC(=O)Nc1cc(-c2ccc(N)cc2)cn2c(-c3cccc(C(F)(F)F)c3)cnc12	-13%	-22%
O=C(Nc1ccccc1)c1ccc(-c2ccccc2C(F)(F)F)o1	-9%	-4%
CCOC(=O)COc1cc(O)c2c(=O)cc(-c3ccccc3)oc2c1	-3%	17%
NC(=O)c1ccc[n+](CC(=O)c2ccc(Br)cc2)c1	-21%	-26%
CN1C(=O)CC2(CC(=O)N(Cc3ccccc3)C2)C1=O (stereo not drawn)	2%	-11%
O=C(CSc1nc2cc(C(=O)NC3CCCC3)ccc2c(=O)n1CC1CCCO1)c1ccc(F)cc1 (stereo not drawn)	7%	3%
Cc1cccc(NC(=O)c2c(C)cc(C)nc2SCC(=O)Nc2c(C)cc(C)cc2C)c1	-19%	i
CCN(CC(=O)Nc1ccc(NC(C)=O)cc1)C(=O)/C=C/c1c(C)nn(-c2ccc(F)cc2)c1Cl	-20%	-24%
Nc1ccn([C@@H]2O[C@H](CNCc3cc(Cl)ccc3OCc3ccc(Cl)cc3)[C@@H](O)[C@H]2O)c(=O)n1	-12%	-18%
CC(C)(C)N1CC(C(=O)Nc2ccc(C#N)cc2)CC1=O (stereo not drawn)	6%	-8%
CC(=O)OC1CC[C@]2(C)C(CC(OC(C)=O)[C@]3(C)C2CC[C@@]2(C)C(c4ccoc4)OC(=O)C4O[C@]432)C1(C)C (stereo partly drawn)	?	-7%
Cc1ccc(C(=O)N2CCN(S(=O)(=O)c3ccccc3)CC2)cc1	-20%	-8%
Cc1cccc(N2CCN(C(=O)c3cc(S(=O)(=O)N(C)C)ccc3N3CCCC3)CC2)c1C	-7%	i
Cc1cccc(NC(=O)c2ccc(COc3ccc(Cl)cc3Cl)o2)n1	-16%	i
CCn1ncc(Br)c1C(=O)Nc1ccccc1OC	-11%	-22%
CC(O)Cn1c(N2CCCC2)nc2c1c(=O)[nH]c(=O)n2C (stereo not drawn)	-3%	i
CCCCCSc1cc(OC)c(CCN(C)C)cc1OC	?	.
OC(c1cc(-c2cccc(Cl)c2)nc2ccccc12)C1CCCCN1 (stereo not drawn)	-21%	?
Cc1nnc(N2CCN(Cc3ccccc3)CC2)[nH]c1=O	-23%	.
COc1ccc2nc3oc(C(=O)N(C)c4ccc(Cl)cc4)cc3cc2c1	-2%	-11%
CC(OC(=O)CCOc1ccccc1)C(=O)NC1CC1 (stereo not drawn)	-17%	i
COc1ccc(C2=NOC(C(=O)Nc3ccc4c(c3)OCCO4)C2)c(OC)c1 (stereo not drawn)	-19%	-25%
O=C1/C(=C\c2ccco2)SC(=S)N1c1ccccc1	-11%	i
CN(C)S(=O)(=O)Nc1cc(Cl)cc(Cl)c1	9%	2%
Cc1ccc(OCC(=O)Nc2ccccc2C(=O)OCc2cc(=O)n3ccsc3n2)cc1C	-22%	-21%
CCN(CC)S(=O)(=O)c1ccc(N2CCCC2)c(NC(=O)c2ccc(OC)cc2OC)c1	-26%	-1%
O=C(NC1CCN(C(=O)NC2CCCCC2)CC1)c1cccc(F)c1	4%	3%
CC(C)c1nc2ccccn2c1NC1CCCCC1	-8%	-12%
CC1(C)Cc2c(sc(NC(=O)COc3ccc(Cl)cc3Cl)c2C(N)=O)C(C)(C)N1	-4%	i
O=C(Oc1cccnc1)c1cc2ccccc2oc1=O	-21%	.
Nc1cc2nsnc2cc1Br	?	?

Source: PubChem (National Center for Advancing Translational Sciences (NCATS))
